bIAP act = increases bovine intestinal alkaline phosphatase activity; activation factor at 20 µM; actives 0.17% (n = 200,000); AID 1016; purified bovine IAP, CDP-star luminescence, 30 min; stronger effect = higher value; fold of DMSO-control signal, blank-subtracted;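 active means activation factor of 2 or more at 20 µM, a signal rise over negative controls twice the positive control's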
PMI act hi M6P = increases human PMI activity with near-saturating mannose 6-phosphate; P34949; actives 0.34% (n = 190,000); activation factor at 20 µM; coupled PMI enzyme assay, resazurin fluorescence, 20 min; stronger effect = higher value; 1 = untreated enzyme, 0 = substrate-free blank;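 active means activation factor of 2 or more at 20 µM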
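Test system: human phosphomannose isomerase with PGI, G6PDH, diaphorase coupling enzymes / Doses: 20 µM compound, 1% DMSO / Times: enzyme reaction with compound 20 min at room temperature / Measured by: Diaphorase-driven resazurin-to-resorufin fluorescence, excitation 544, emission 590 nm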
PMI act = increases human mannose-6-phosphate isomerase activity; purified human PMI, coupled resazurin fluorescence, 20 min; stronger effect = higher value; 1 = vehicle control, 0 substrate-free wells; AID 1214; activation factor at 20 µM; P34949; actives 0.005% (n = 190,000);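 active means activation factor of 2 or more at 20 µM, relative to plate controls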
TNAP inh noacc = TNAP (human) inhibition, acceptor-free conditions. P05186. purified TNAP, CDP-star luminescence, 30 min. inhibition, % at 20 µM. actives 0.26% (n = 200,000). AID 1012;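 active means tissue-nonspecific alkaline phosphatase inhibition above about 50% at 20 µM in the single-dose screen, limit read from the data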;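 further: 0% = DMSO negative control and 100% = EDTA positive control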
Target sequence (P05186 whole entry, looked up): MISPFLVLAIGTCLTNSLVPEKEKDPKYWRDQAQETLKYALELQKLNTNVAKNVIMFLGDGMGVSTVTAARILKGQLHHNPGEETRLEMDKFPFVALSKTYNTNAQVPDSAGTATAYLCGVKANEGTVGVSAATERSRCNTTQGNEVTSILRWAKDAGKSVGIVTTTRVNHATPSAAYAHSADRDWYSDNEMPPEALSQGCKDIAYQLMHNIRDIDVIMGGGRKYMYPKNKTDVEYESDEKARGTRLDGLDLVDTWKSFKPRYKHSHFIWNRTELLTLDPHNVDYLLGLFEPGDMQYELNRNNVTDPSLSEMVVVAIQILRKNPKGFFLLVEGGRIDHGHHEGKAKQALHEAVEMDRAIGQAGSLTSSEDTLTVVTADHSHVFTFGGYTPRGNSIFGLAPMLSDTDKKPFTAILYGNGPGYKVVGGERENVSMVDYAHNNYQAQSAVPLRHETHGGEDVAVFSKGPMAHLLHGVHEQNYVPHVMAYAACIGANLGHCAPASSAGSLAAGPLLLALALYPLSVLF
TNAP inh hi DEA = inhibitors of human TNAP at high phosphate acceptor concentration | inhibition, % at 20 µM | purified TNAP, CDP-star luminescence, 1 M DEA | actives 0.03% (n = 200,000) | P05186;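 active means over 50% inhibition of tissue-nonspecific alkaline phosphatase at 20 µM in the single-dose screen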;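 further: plate controls were DMSO wells for no effect and EDTA-quenched wells as full inhibition for full effect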
TNAP act hiacc = TNAP (human) activation, high acceptor; P05186; purified TNAP, CDP-star luminescence, 1 M DEA, 30 min; stronger effect = higher value; 0 = EDTA background, 1 = DMSO-only activity; activation factor at 20 µM; 200,000 tested, under 10 active;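 active means activation factor at least 2 at 20 µM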
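Test system – human TNAP · Doses – 20 µM single point · Incubation – 30 min, room temperature · Signal – luminescent substrate turnover signal · Read-out basis – activation factor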
Starred values were filed as active, the others as inactive; & = joins results of further samples. Not all compounds are listed; rates above refer to the full screens.

SMILES	bIAP act	PMI act hi M6P	PMI act	TNAP inh noacc	TNAP inh hi DEA	TNAP act hiacc
C[C@](N)(Cc1ccc(O)c(O)c1)C(=O)O	0.6	0.6	0.4	54.1*	4.9	1
COc1ccc(NC(=O)Nc2ccccc2F)cc1	0.9	1	1	-8.0	2.0	1
CC(C)c1ccc(NC(=O)C(=O)C2C(=O)Nc3ccccc32)cc1 (stereo unspecified)	1	1.4	1.4	-9.8	-0.5	1
O=C(O)COCCN1CCN([C@H](c2ccccc2)c2ccc(Cl)cc2)CC1	1.1	1.4	1.4	-4.7	-4.0	1
C[C@@H]1C[C@H]2[C@@H]3C[C@H](F)C4=CC(=O)C=C[C@]4(C)[C@@]3(F)[C@@H](O)C[C@]2(C)[C@@]1(O)C(=O)CO	1	1.2	1.3	-12.0	-1.9	1
NC(=O)CC[C@@H]1NC(=O)[C@H](Cc2ccccc2)NC(=O)[C@H](Cc2ccc(O)cc2)NC(=O)[C@@H](N)CSSC[C@@H](C(=O)N2CCC[C@H]2C(=O)N[C@@H](CCCN=C(N)N)C(=O)NCC(N)=O)NC(=O)[C@H](CC(N)=O)NC1=O	0.9	1	1	-2.2	-0.6	1
COc1ccc(-c2csc(Nc3ccccn3)n2)cc1	0.7	0.9	1	-7.9	0.9	1
Nc1ccn([C@@H]2O[C@H](CO)[C@@H](O)C2O)c(=O)n1 (stereo partly specified)	1	1	1	-9.3	-5.7	1.1
CCCCOc1ccc(C(=O)Nc2cccc(C)n2)cc1	0.8	0.9	0.9	-7.6	-0.8	1
Cc1nc(-c2ccc(NC(=O)c3cccs3)cc2)cs1	1	0.9	0.9	-3.4	0.5	1
COC(=O)C1=C(C)NC(C)=C(C(=O)OCCN(C)Cc2ccccc2)C1c1cccc([N+](=O)[O-])c1 (stereo unspecified)	0.8	0.9	1	-8.3	-4.0	1
N=C(N)c1ccc(OCCCCCOc2ccc(C(=N)N)cc2)cc1	0.9	1	1.1	-15.7	-1.1	1
Brc1ccc(-c2cn3ccccc3n2)s1	0.8	1.1	1.1	-9.9	-4.0	1
CCOC(=O)c1ncn2c1CN(C)C(=O)c1cc(F)ccc1-2	0.9&0.9	1&0.8	1&0.9	-6.7&-9.2	-4.2&-2.7	1&1
O=c1[nH]cnc2c1ncn2[C@H]1CC[C@@H](CO)O1	0.9	1.1	1	-4.0	-2.1	1
c1ccc2nc(-c3ccc4c(c3)OCO4)ccc2c1	0.9	1	1	-19.9	-4.8	1
Cc1nn(-c2nc3ccccc3[nH]2)c(N)c1-c1ccccc1	0.9	1	1	-152.2	-0.5	1
CC(C)c1ccc(NC(=O)c2ccc(Br)o2)cc1	1	1	1	-8.3	0.5	1
CCCC(=O)Nc1ccc(OCC(O)CNC(C)C)c(C(C)=O)c1 (stereo unspecified)	0.9	1.2	1.2	-7.1	1.2	1
CN/C(=C/[N+](=O)[O-])NCCSCc1ccc(CN(C)C)o1	0.9	0.9	1	-11.8	-2.4	1

Reformatted field by field: part of the list above.
> Brc1ccc(-c2cn3ccccc3n2)s1
- bIAP act = 0.8
- PMI act hi M6P = 1.1
- PMI act = 1.1
- TNAP inh noacc = -9.9
- TNAP inh hi DEA = -4.0
- TNAP act hiacc = 1
> Cc1nn(-c2nc3ccccc3[nH]2)c(N)c1-c1ccccc1
- bIAP act = 0.9
- PMI act hi M6P = 1
- PMI act = 1
- TNAP inh noacc = -152.2
- TNAP inh hi DEA = -0.5
- TNAP act hiacc = 1
> c1ccc2nc(-c3ccc4c(c3)OCO4)ccc2c1
- bIAP act = 0.9
- PMI act hi M6P = 1
- PMI act = 1
- TNAP inh noacc = -19.9
- TNAP inh hi DEA = -4.8
- TNAP act hiacc = 1
> CCOC(=O)c1ncn2c1CN(C)C(=O)c1cc(F)ccc1-2
- bIAP act = 0.9&0.9
- PMI act hi M6P = 1&0.8
- PMI act = 1&0.9
- TNAP inh noacc = -6.7&-9.2
- TNAP inh hi DEA = -4.2&-2.7
- TNAP act hiacc = 1&1

The list goes on.
SMILES	bIAP act	PMI act hi M6P	PMI act	TNAP inh noacc	TNAP inh hi DEA	TNAP act hiacc
CC(COc1ccccc1)N(CCCl)Cc1ccccc1 (stereo unspecified)	0.7	1	0.9	-3.4	3.5	1
C=CCOC(=O)c1sc(NC(=O)c2ccco2)nc1C	0.9	0.9	1	-1.5	-6.2	1.1
CC[N+](C)(C)c1cccc(O)c1	0.8	1.1	1.1	-9.7	-3.5	1
O=C(Nc1ccc2c(c1)OCO2)c1ccc(Cl)s1	0.7	0.9	0.8	-26.4	-4.9	1
Cc1ccc(-c2nnc(Nc3ccccc3)o2)cc1	0.8	1	1	-10.3	-4.6	1

Given as labelled records: entries from further up
structure: Cc1ccc(-c2nnc(Nc3ccccc3)o2)cc1
- bIAP act: 0.8
- PMI act hi M6P: 1
- PMI act: 1
- TNAP inh noacc: -10.3
- TNAP inh hi DEA: -4.6
- TNAP act hiacc: 1
structure: CC(COc1ccccc1)N(CCCl)Cc1ccccc1 (stereo unspecified)
- bIAP act: 0.7
- PMI act hi M6P: 1
- PMI act: 0.9
- TNAP inh noacc: -3.4
- TNAP inh hi DEA: 3.5
- TNAP act hiacc: 1
structure: C=CCOC(=O)c1sc(NC(=O)c2ccco2)nc1C
- bIAP act: 0.9
- PMI act hi M6P: 0.9
- PMI act: 1
- TNAP inh noacc: -1.5
- TNAP inh hi DEA: -6.2
- TNAP act hiacc: 1.1
structure: CC[N+](C)(C)c1cccc(O)c1
- bIAP act: 0.8
- PMI act hi M6P: 1.1
- PMI act: 1.1
- TNAP inh noacc: -9.7
- TNAP inh hi DEA: -3.5
- TNAP act hiacc: 1
